Source: PubChem (Emory University Molecular Libraries Screening Center)
Measles inh: inhibitors of measles virus growth in infected cells | infected Vero cells, GFP fluorescence, 64 h; hits give low values | z-score (concentration not given with the values) | actives 0.1% (n = 33,000) | AID 745;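 active = z-score under -3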;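 note: score is relative to mean and SD of the compound wells of a plate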
The depositor's hits bear a star.

SMILES	Measles inh
Cc1sc2c(c1C)c(=O)n(CCc1ccccc1)c(=O)n2Cc1ccccc1	0.64
CCOc1ccc2c(c1)C(C)CC(C)(C)N2C(=O)Nc1ccc(Cl)cc1 (centres undefined)	-0.61
COc1ccc(Cl)cc1N(C)C(=O)c1cc2cc3ccc(C)cc3nc2s1	0.59
CCc1cc2c(=O)c(-c3ccc4c(c3)OCO4)coc2cc1OC	2.39
C=CCc1c(Cl)nc(C)nc1NCCO	-1.33
CCc1ccc(C2NC(=O)NC(C)=C2C(=O)OC(C)CC)cc1 (centres undefined)	0.92
CC(=O)Nc1ccc(N2C(=O)CC(N3CCN(C)CC3)C2=O)cc1 (centres undefined)	0.62
COc1ccccc1C1N=C(c2ccc3c(c2)OCO3)CC(c2cc(Cl)ccc2O)N1 (centres undefined)	1.02
O=C1c2cccc3c(N4CCOCC4)ccc(c23)C(=O)N1CCO	0.16
CCOCCOC(=O)C1=C(C)NC2=C(C(=O)CC(c3cccs3)C2)C1c1ccccc1Cl (centres undefined)	-0.11
O=C(NC1CCCCC1)C(c1ccc(Cl)cc1)N1CCCC1 (centres undefined)	0.14
CC1(C)CC(=O)C2=C(C1)Nc1ccccc1N(C(=O)C1CC1)C2c1cccs1 (centres undefined)	0.22
Cc1ccc(-n2nc3c(c2NC(=O)c2ccc4c(c2)OCO4)CS(=O)(=O)C3)c(C)c1	-0.3
CCCn1cnc2sc(C(=O)Nc3c(C)cc(Br)cc3C)c(C)c2c1=O	0.1
COC(=O)c1ccc(NC(=O)CSc2nc3ccc(N4C(=O)c5cccc([N+](=O)[O-])c5C4=O)cc3s2)cc1	-0.79

Arranged by molar mass (smallest number first): part of the list above
SMILES	Measles inh
Cc1sc2c(c1C)c(=O)n(CCc1ccccc1)c(=O)n2Cc1ccccc1	0.64
Cc1ccc(-n2nc3c(c2NC(=O)c2ccc4c(c2)OCO4)CS(=O)(=O)C3)c(C)c1	-0.3
CCCn1cnc2sc(C(=O)Nc3c(C)cc(Br)cc3C)c(C)c2c1=O	0.1
COc1ccccc1C1N=C(c2ccc3c(c2)OCO3)CC(c2cc(Cl)ccc2O)N1 (centres undefined)	1.02
COC(=O)c1ccc(NC(=O)CSc2nc3ccc(N4C(=O)c5cccc([N+](=O)[O-])c5C4=O)cc3s2)cc1	-0.79

New compounds follow.
SMILES	Measles inh
CCOc1ccc2c(C)cc(=O)oc2c1C	-1.17
O=C(Nc1cc(Br)ccc1O)c1cc(-c2cccs2)on1	1.38
O=C(NCCc1ccccc1)c1cc(Sc2ccc(F)cc2)nc2ccccc12	2.34
COC(=O)C1=C(N)OC2=C(C(=O)CC(c3ccccc3)C2)C1c1ccc([N+](=O)[O-])cc1 (centres undefined)	-0.1
CC1CCc2sc(NC(=O)c3cc(Cl)ccc3[N+](=O)[O-])c(C#N)c2C1 (centres undefined)	-1.3
CCC(C)(C(=O)NC1CCCC1)N(CC1CCCO1)C(=O)c1cnccn1 (centres undefined)	-0.78
O=C(Nc1ccc(C23CC4CC(CC(Cl)(C4)C2)C3)cc1)c1ccc(F)cc1	-0.06
COc1ccc(C2(C(=O)Nc3ccc(C)c(C)c3)CCCC2)cc1OC	-0.6
CCCCC(C(=O)OCC(=O)c1ccc([N+](=O)[O-])cc1)N1C(=O)c2ccccc2C1=O (centres undefined)	0.51
Cc1ccc(OCC(=O)Nc2ccc(N3CCOCC3)c(Cl)c2)cc1	-0.3
Cc1cccc(NC(=O)c2ccc(F)c(S(=O)(=O)N3CC(C)CC(C)C3)c2)c1 (centres undefined)	-0.97
CC(C)c1ccc(-c2c(C#N)c(N)nc3sc(C(=O)c4ccccc4)c(N)c23)cc1	0.89
CCCNc1nc2c(c(=O)[nH]c(=O)n2C)n1Cc1ccc(F)cc1	0.59
Cc1ccc(C2=NN(C(=O)CCC(=O)O)C(c3cc4ccccc4nc3Cl)C2)cc1 (centres undefined)	-0.75
CC(C)(C)C1CCC(OCC(O)CN2CCC(CN3C(=O)c4cccc5cccc(c45)C3=O)CC2)CC1 (centres undefined)	0
CCN(CC)CCNC(=O)C1CCN(S(=O)(=O)N2CCC(C)CC2)CC1	1.02
CCCCc1nc2sc3c(N4CCC(C)CC4)ncnc3c2c2c1COC(C)(C)C2	0.55
COc1ccc(-n2cc(-c3ccc(C)cc3)nc2SCC(=O)Nc2ccc(F)cc2)cc1	-0.88
Cc1[nH]c2ccccc2c1SCCNC(=O)C12CC3CC(CC(C3)C1)C2	-1.41
NC(=O)c1c(NC(=O)C2CCCC2)sc2c1CCCC2	-0.65
C=CCn1c(SCCc2ccccc2)nc2c1c(=O)[nH]c(=O)n2C	0.29
O=C(CSCc1ccccc1F)NC1CCCCC1	-0.14
O=C(CSc1nc2c(cnn2-c2ccc(F)cc2)c(=O)[nH]1)N1CCCc2ccccc21	-0.62
CCc1ccc(NC(=O)NCC2CCN(c3ccc(OC)cc3)C2)cc1 (centres undefined)	1.46
Cc1cccc(NC(=O)C2CC3CCCC(C2)C3=O)c1 (centres undefined)	-0.59
COc1ccc(-c2csc(-c3c[nH]c4ccccc34)n2)cc1	-0.67
COc1ccc(N2CCN(C(=O)c3ccc(SCc4cccc(F)c4)c(N)c3)CC2)cc1	-0.65
CC(=O)Nc1ccc(S(=O)(=O)Nc2ccccc2C#N)cc1	-0.07
Cc1ccc(CS(=O)(=O)Cc2ccc(C(=O)NC3CCCC(C)C3C)o2)cc1 (centres undefined)	-0.11
CC(=O)Nc1cc(C(=O)N2CCc3ccccc3C2)ccc1S(=O)(=O)c1ccc(Cl)cc1	-0.93
O=C(Nc1nonc1-c1nc2ccccc2n1CCOC(=O)c1ccc(F)cc1)c1ccc(F)cc1	0.08
CCOC(=O)c1cnc2c(C(F)(F)F)cccc2c1Nc1ccc(OC)cc1OC	0.98
O=C(c1cc2ccccc2oc1=O)N1CCSC1c1ccccc1Cl (centres undefined)	-0.08
CCCOc1ccc(N2C(=O)CC(N(CC34CC5CC(CC(C5)C3)C4)C(C)=O)C2=O)cc1 (centres undefined)	0.55
CCCC(=O)Oc1ccc2c(=O)c(-c3ccc(OC)c(OC)c3)c(C(F)(F)F)oc2c1	0.23
COC(=O)c1ccc(C(=O)OC)c(NC(=O)c2ccc(Cl)cc2[N+](=O)[O-])c1	0
CCc1ccc(S(=O)(=O)N(C(=O)c2cccc([N+](=O)[O-])c2)c2ccc3oc(C)c(C(C)=O)c3c2)cc1	-0.66
CCC(=O)N1c2ccc(S(=O)(=O)CCC(=O)Nc3ccc(Cl)cc3)cc2CC1C (centres undefined)	0.1
CN1CCN(C(=O)c2cc3c(n(-c4ccc(Cl)cc4)c2=O)CCCC3=O)CC1	-0.4
CCCSc1nnc2c(n1)OC(C=Cc1cccs1)Nc1ccccc1-2 (centres undefined)	-0.8
COc1ccc(CNC(=O)C2CCN(C(=O)N(C)C)CC2)cc1	-0.18
COc1ccc(C(=O)Nc2ccc(Cl)c(-c3nc4ccccc4o3)c2)cc1	-0.26
O=C(Nc1ccc(Cl)cc1)C1CC(=O)N(CCO)C(=Nc2ccccc2)S1 (centres undefined)	-2.21
CCC(=O)N1c2ccccc2N(S(=O)(=O)c2ccc(C)cc2)C1c1ccc(N(C)C)cc1 (centres undefined)	-0.19
CCOc1ccccc1C(=O)Nc1ccccn1	-0.53
O=C(NCCn1ccc2ccccc21)C12CC3CC(CC(C3)C1)C2	-0.08
CC1CCCN(Cc2cn3c(-c4ccc(Br)cc4)nnc3s2)C1 (centres undefined)	0.56
COc1ccc(C(C(=O)NC2CCCCC2)N2CC(C)CC(C)C2)cc1 (centres undefined)	0.74
OC(CN1C2=NCCCN2c2ccccc21)c1ccc(Cl)cc1 (centres undefined)	-0.25
Cc1ccc(Nc2ncnc3[nH]ncc23)cc1	0.81
CC12CCC(C(=O)N3CCCc4ccccc43)(CC1=O)C2(C)C (centres undefined)	-2.2
CCOc1ccc(NC(=O)C2c3cc(OC)c(OC)cc3C(=O)N(C)C2c2cccs2)cc1 (centres undefined)	-0.72
O=C(NCCc1ccc(Cl)cc1)c1ccc2c(=O)n(-c3ccccc3)c(=O)[nH]c2c1	-0.53
O=C(Nc1ccc(OCc2ccccc2)cc1)C1CCN(S(=O)(=O)c2ccccc2)CC1	0.63
N=C1c2ccccc2CN1CC(=O)c1ccc2c(c1)OCCO2	-1.55
COC(=O)c1ccc(C(=O)Nc2ccccc2-c2nc3ccccc3[nH]2)cc1	-0.13
O=C(COc1ccc(Br)cc1)NCc1ccco1	-0.67
O=C(c1ccc2c(=O)n(CCc3ccccc3)c(=S)[nH]c2c1)N1CCCC1	1.02
COc1ccc(-c2n[nH]c3c2C(c2ccccc2OC)N(c2ccc(Br)cc2)C3=O)cc1 (centres undefined)	-0.31
Cc1cccc(NC(=O)CCN2CCCC2)c1	0.34
(further entries)
SMILES	Measles inh
CCCCC(=O)N1CCc2cc(OC)c(OC)cc2C1COc1cccc(C(F)(F)F)c1 (centres undefined)	-0.31
CCOC(=O)c1c(C)nc2ccc(Cl)cc2c1-c1ccccc1	-1.64
O=c1oc2ccc(O)cc2c2c1NCCC2	-0.1
O=C(CSc1ncn[nH]1)Nc1nc(-c2ccccc2)cs1	1.01
O=C(NCc1ccc2c(c1)OCO2)NC12CC3CC(CC(C3)C1)C2	-0.75
CCOC(=O)c1c(NC(=O)c2ccccc2F)sc(C(=O)Nc2cccc(Cl)c2C)c1C	1.16
CC(=O)Oc1cccc2ccc(C=Cc3cc4c(cc3Br)OCO4)nc12	5.09
COc1ccc(CNc2ccc(C(=O)N3CC4CC(C3)c3cccc(=O)n3C4)cc2[N+](=O)[O-])cc1 (centres undefined)	-1.64
COC(=O)C1=CN(C)C=C(C(=O)OC)C1c1cc2c(cc1Br)OCO2	0.34
Cc1ccc2nc(-c3ccc(NC(=O)C(C)(C)C)cc3)sc2c1	0.73
Cc1ccc(C2(C)NC(=S)N(c3ccccc3)N2)cc1 (centres undefined)	0.92
CCN(CC)CCCn1c(=S)[nH]c2ccc(Cl)cc2c1=O	-0.11
CCOC(=O)c1ccc(CN(Cc2ccc(F)cc2)S(=O)(=O)c2ccc([N+](=O)[O-])cc2)cc1	-0.34
COC(=O)C1=CN(CCC23CC4CC(CC(C4)C2)C3)C=C(C(=O)OC)C1c1cccc([N+](=O)[O-])c1	-2.1
S=C(c1cccs1)N1CCCC1	1.42

The list goes on, starting with the last five of the part before.
SMILES	Measles inh
Cc1ccc(C2(C)NC(=S)N(c3ccccc3)N2)cc1 (centres undefined)	0.92
CCN(CC)CCCn1c(=S)[nH]c2ccc(Cl)cc2c1=O	-0.11
CCOC(=O)c1ccc(CN(Cc2ccc(F)cc2)S(=O)(=O)c2ccc([N+](=O)[O-])cc2)cc1	-0.34
COC(=O)C1=CN(CCC23CC4CC(CC(C4)C2)C3)C=C(C(=O)OC)C1c1cccc([N+](=O)[O-])c1	-2.1
S=C(c1cccs1)N1CCCC1	1.42
COc1ccc(C(C(=O)NC2CCCC2)N2CCCCC2)cc1 (centres undefined)	0.62
CC(C)(C)c1ccc(Cn2c(NC(=O)c3ccccc3)nc3ccccc32)cc1	-0.72
COc1cccc(-n2c(=O)c3sccc3n(CC(=O)N3CCCc4ccccc43)c2=O)c1	-0.79
C=CCSc1nnc2c(n1)OC(c1ccc(OCC)c(C)c1)Nc1ccccc1-2 (centres undefined)	0.5
COc1cc(OC)cc(C(=O)Nc2nc3ccc(Cl)cc3s2)c1	-0.74
COc1ccc(NC(=O)c2cc3nc(-c4ccc(OC)c(OC)c4)cc(C(F)(F)F)n3n2)cc1OC	1.1
CCC(=O)Nc1sc2c(c1C(=O)Nc1ccc(Br)cc1)CCC(C)C2 (centres undefined)	-0.67
CCOC(=O)C1CCN(c2nc(C)nc3sc4c(c23)CCC4)CC1	-0.97
CCOC(=O)C1C(=O)OC2(CCOC(C)(C)C2)C1C(=O)OCC (centres undefined)	-0.66
CCN(CC)CCC(=O)N1N=C(c2ccc(C)cc2)CC1c1ccc(OC)cc1 (centres undefined)	-0.58
CCOC(=O)C1=C(C)NC2=C(C(=O)C(C(=O)OC)C(C)C2)C1c1cccc(Oc2ccccc2)c1 (centres undefined)	-0.66
Cc1ccc2c(C)nc(/N=C(\N)NC(=O)c3ccccc3)nc2c1	0.21
COc1ccc([N+](=O)[O-])cc1NC(=O)c1cn(CC(C)C)c(=O)c2cc(OC)c(OC)cc12	1.9
O=c1c2sccc2nc(SCc2ccccc2Cl)n1-c1ccc(F)cc1	-0.44
Cc1cc(O)c(C=Nc2ccc(F)cc2)c(C)c1Cl	-1.31
COCCNC(=O)c1nn2c(C(F)(F)F)c3c(nc2c1Cl)-c1ccccc1CC3	0.48
CC(=O)c1c(O)c2ccccc2oc1=O	1.22
Cc1ccc(NC(=O)c2ccccc2NC(=O)c2cccc(S(=O)(=O)N3CCOCC3)c2)c(C)c1	-1.86
COc1ccc(C(=O)N2CCN(c3ccccc3F)CC2)cc1	1.7
Cc1ccc(S(=O)(=O)NC(C)C2COc3ccccc3O2)cc1 (centres undefined)	0.01
CCC(C)NC(=O)CSc1nc2cc(OC)c(OC)cc2c2nc(-c3ccccc3)nn12 (centres undefined)	0.61
COc1ccc(C2C3C(=O)N(c4ccc(C)cc4)C(=O)C3ON2c2ccccc2C)c(OC)c1 (centres undefined)	0.07
CCOC(=O)CSc1cn2c(n1)CCC2	0.37
O=C(c1cc(-c2cccs2)on1)N1CCCCC1	0.02
CCCCCn1c(CNC(=O)CCC)nc2ccccc21	-0.94
Cc1c(C(=O)N2c3ccc(F)cc3CCC2C)sc2ncn(CC(=O)N3CCCCC3)c(=O)c12 (centres undefined)	0.74
Cc1ccc(CNC(=O)CCc2nc3sc4c(c3c(=O)[nH]2)CCCC4)cc1	-0.41
Cc1c(Cl)c([N+](=O)[O-])nn1CC(=O)Nc1cc(Oc2ccccc2)cc(Oc2cccnc2)c1	-1.13

A portion of the library, so the mix of outcomes need not match the whole.
